Rce1 inh: blocks yeast Ras-converting enzyme; AID 2563; 290,000 tested, 0.27% active; calls only; yeast membranes, quenched prenylated peptide cleavage fluorescence;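 active = fall in fluorescence gain of 50% or more versus controls, with final raw signal at or below 3038400; inconclusive = same 50% fall but final raw signal above 3038400; inactive = fall in fluorescence gain under 50%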;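 also: plate controls were neutral control wells for no effect and wells lacking membranes for full effect; tested at 10 µM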
Target sequence (Q03530 whole entry, looked up): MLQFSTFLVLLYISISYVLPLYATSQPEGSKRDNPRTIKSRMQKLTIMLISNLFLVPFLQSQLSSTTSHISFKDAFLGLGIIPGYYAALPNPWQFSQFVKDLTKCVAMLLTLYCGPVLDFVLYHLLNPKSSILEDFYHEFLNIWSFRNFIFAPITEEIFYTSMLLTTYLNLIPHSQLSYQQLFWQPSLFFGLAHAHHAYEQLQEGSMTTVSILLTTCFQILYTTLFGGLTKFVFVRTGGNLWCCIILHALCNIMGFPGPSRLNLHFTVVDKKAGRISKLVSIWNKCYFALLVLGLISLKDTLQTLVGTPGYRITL
PABP polyA inh: blocks human PABP binding to poly(A) RNA | 290,000 tested, 1% active | inhibition, % at 35 µM | P11940 | fluorescence polarization;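 active = 50% or more with normal probe brightness, or confirmed in later tests; inconclusive = above 50% with abnormal brightness, or retests that disagree; inactive = below 50% or failed in later tests; about a fifth of its hits are not listed in these tables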;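 also: calls also rest on retests at 20 µM and on dose response follow-up; controls were probe without protein and protein plus probe with vehicle; some compounds called inactive have numbers as strong as hits; many hits fall short of the cut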
Target sequence (P11940 whole entry, looked up): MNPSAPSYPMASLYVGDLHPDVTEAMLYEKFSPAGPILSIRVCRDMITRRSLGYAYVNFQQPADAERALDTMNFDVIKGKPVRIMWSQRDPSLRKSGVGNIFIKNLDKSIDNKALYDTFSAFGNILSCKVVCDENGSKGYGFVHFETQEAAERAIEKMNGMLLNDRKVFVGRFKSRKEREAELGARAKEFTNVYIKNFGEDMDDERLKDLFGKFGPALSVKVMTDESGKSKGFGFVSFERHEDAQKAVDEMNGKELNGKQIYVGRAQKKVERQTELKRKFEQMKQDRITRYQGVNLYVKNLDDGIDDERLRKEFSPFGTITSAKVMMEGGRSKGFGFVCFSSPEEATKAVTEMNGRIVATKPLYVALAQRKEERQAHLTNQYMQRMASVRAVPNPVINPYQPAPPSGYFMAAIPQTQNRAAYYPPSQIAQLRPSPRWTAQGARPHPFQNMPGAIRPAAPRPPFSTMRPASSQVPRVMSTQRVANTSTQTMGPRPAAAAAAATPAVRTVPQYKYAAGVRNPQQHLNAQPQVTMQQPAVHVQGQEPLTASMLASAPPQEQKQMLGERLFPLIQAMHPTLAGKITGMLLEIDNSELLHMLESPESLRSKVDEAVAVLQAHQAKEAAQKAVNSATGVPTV
HIV Env fusion: blocks HIV Env-driven cell-cell fusion | inhibition, % at 12.3 µM | HeLa-JRFL Env/CEM21 cell fusion, luciferase | 360,000 tested, 1.1% active | AID 651610;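 active = mean replicate inhibition score of at least 50 and every replicate individually at or above 50; inconclusive = only one of the two criteria met; inactive = mean below 50 and not all replicates reaching 50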;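 also: 0% = plate neutral controls and 100% = maraviroc near 300 nM; one replicate is shown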
eIF4H FP inh: inhibitors of RNA binding by human eIF4H; inhibition, % at 35 µM; eIF4H fluorescence polarization binding assay; 290,000 tested, 0.94% active;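 active = 50% or more with normal probe brightness, or confirmed in later tests; inconclusive = above 50% with abnormal brightness, or retests that disagree; inactive = below 50% or failed in later tests; about a fifth of its hits are not listed in these tables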;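 also: calls also rest on retests at 20 µM and on dose response follow-up; 0% = protein and probe with vehicle and 100% = probe without protein; strong numbers were not always called active; many hits fall short of the cut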
CSC inhib: cancer stem cell inhibition; cancer stem cell-like cells viability, luminescence; inhibition, % at 7.5 µM; 300,000 tested, 1.1% active; AID 2717;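 active = mean at 75% or more and at least half the replicates too; inconclusive = mean and replicates disagree; tested in HMLE shEcad cells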;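 also: 0% = median of negative and 100% = median of positive control wells; the first replicate is given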
MT1-MMP act inh: inhibitors of human MT1-MMP activation. AID 651647. 360,000 tested, 0.061% active. HT1080 RFP-PRO-GFP cells, GFP/RFP ratio fluorescence, overnight; percent of plate control window, DMSO zero. GFP/RFP ratio change, % at 20 µM. P50281;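 active = GFP/RFP ratio change of at least 30% with cell ATP level not reduced by more than half and red fluorescence within 50% of control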; also: strong numbers were not always called active
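system = RFP-PRO-GFP reporter HT1080 cells | dosing = 20 µM single dose, 1% DMSO | timing = overnight cell settling, then overnight compound exposure, 37 °C, 5% CO2 | read-out basis = GFP/RFP fluorescence ratio | controls = DMSO and RFP-L50D-GFP cell wells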
UUG fidelity: yeast start codon fidelity modulation | S. cerevisiae UUG-firefly luciferase reporter, luminescence/redox ratio | activity score, % at 18.7 µM | 350,000 tested, 0.13% active | AID 602363;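 active = replicate mean at a twofold rise or more, about +100% in these data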;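 also: firefly luciferase made from a UUG start codon reports start codon fidelity; reporter light over untreated wells divided by growth signal over untreated wells; some hits fall short of that in this replicate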
eIF4H FP inh retest: second read-out of eIF4H FP inh, no call of its own (marks repeat the call); inhibition, %; compound at 20 µM; confirmation average;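 mean of two retest wells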
PABP polyA inh retest: also measured in PABP polyA inh; calls as there; inhibition, %; compound at 20 µM; confirmation repeats;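 mean of two retest wells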
MT1-MMP act inh RFP: second read-out of MT1-MMP act inh, no call of its own (marks repeat the call); RFP signal change, %; measured here: RFP expression control read;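 0 = vehicle wells; hits needed this value within 50% of zero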
Numbers without * were called inactive; i = inactive; ? = inconclusive; / = not tested or not shown; & = joins results of further samples; [ ] = dose if it differs, or a comment.

SMILES	Rce1 inh	PABP polyA inh	HIV Env fusion	eIF4H FP inh	CSC inhib	MT1-MMP act inh	MT1-MMP act inh RFP	UUG fidelity	others
C[C@H]1CN=C(Nc2ccccc2)N1CCCC1CCCC1	i	-5.4	-13.7	1.7	5.7	0.6	3.7	-8.9
COc1ccc2c(c1)C(=O)N(c1ccc(C)cc1C)C(=O)C2(C)C	i	1.9	3.9	-8.7	-1.9	0.2	0.1	5.4
Cn1nnnc1Sc1ccc([N+](=O)[O-])cc1Cl	i	-3.3	-17.6	8.6	-12.9	6.2	3.5	/
CN1CCN(C(=O)/C=C/c2ccc3c(c2)OCO3)CC1	i	0.3	0.9	-0.8	-9.6	8.8	5.5	/
CC(NC(=O)Nc1nnc(C(F)(F)F)s1)N1C(=O)C2C3C=CC(C3)C2C1=O (stereo unspecified)	i	-11.9	/	2.1	-5.1	4.7	9.4	-2.1
CC1(C(=O)O)CCC(C(=O)N2CCCCC2)C1(C)C (stereo unspecified)	i	-7.4	5.0	-3.1	-6.6	1.2	1.0	/
CN1C(=O)NC(c2ccccc2)(C(F)(F)F)S/C1=C(/C#N)c1nnc(N2CCOCC2)n1-c1ccccc1 (stereo unspecified)	i	-1.7	-1.7	-8.8	0.3	-3.1	-3.3	/
CCn1c(=O)c2c(O)cc(=O)oc2c2ccccc21	i	9.3	-85.4	6.1	-3.8	-3.8	-4.2	4.1
c1ccc(CCc2nc(-c3ccncc3)no2)cc1	i	-3.0	/	9.9	-22.2	8.7	1.9	-0.5
COC(=O)c1ccc(CNC(=O)COC(=O)/C=C/c2ccc(OC)c(OC)c2)cc1	/	/	-7.4	/	-3.5	5.0	-1.8	-15.2

Next part; it opens with the 2 that closed the last part.
SMILES	Rce1 inh	PABP polyA inh	HIV Env fusion	eIF4H FP inh	CSC inhib	MT1-MMP act inh	MT1-MMP act inh RFP	UUG fidelity	others
c1ccc(CCc2nc(-c3ccncc3)no2)cc1	i	-3.0	/	9.9	-22.2	8.7	1.9	-0.5
COC(=O)c1ccc(CNC(=O)COC(=O)/C=C/c2ccc(OC)c(OC)c2)cc1	/	/	-7.4	/	-3.5	5.0	-1.8	-15.2
CC12CC(NC(=O)N1c1ccc(C(=O)N3CCN(c4ccc(F)cc4)CC3)cc1)c1ccccc1O2 (stereo unspecified)	i	1.8	/	2.1	/	0.1	-7.0	4.1
CCCC(=O)NC(=S)Nc1cccc(Cl)c1N1CCCC1	i	1.3	10.8	0.7	?	-9.1	-7.6	-18.6
CCc1nc2cc(NC(=O)C3(C)CCCN(C(C)C)C3)ccc2o1 (stereo unspecified)	/	/	-10.3	/	/	2.3	3.9	-18.8
CCOC(=O)C1(CCc2ccccc2)CCN(Cc2ccc(O)cc2)CC1	i	-2.6	-3.6	-2.3	35.5	0.7	0.3	-3.3
Cc1cccc2cc(C#N)c(SCC(=O)N3CC(=O)Nc4ccccc43)nc12	i	27.0	/	33.0	40.4	-46.8	-3.9	-19.7
CC(NC(=O)c1cc(COc2ccc(-n3cncn3)cc2)on1)c1ccc(F)cc1 (stereo unspecified)	/	/	-9.0	/	/	0.2	-4.1	-28.5
O=C(COC(=O)C1=NNC(=O)CC1)NCCc1ccccc1	i	/	10.0	/	-5.4	2.1	0.4	-9.7
COc1ccc(NS(=O)(=O)c2cccc3cccnc23)cc1	/	2.7	-8.9	8.9	0.2	4.9	-5.7	-9.6
Cc1cc(C)c(OCC(=O)OCC(=O)N(C)C2CCS(=O)(=O)C2)c(C)c1 (stereo unspecified)	i	/	-23.6	/	-1.9	2.9	1.5	-5.4
CCOC(=O)Nc1ccc(OCc2nnc3c4ccccc4c(C)nn23)cc1	i	0.2	16.2	-6.9	-5.3	0.1	0.3	/
C#CCSc1nnc(-c2cccc3ccccc23)o1	i	/	-8.6	/	-10.5	6.2	5.7	/
Cc1ccc(-c2[nH]nc3c2C(C)C(C#N)=C(N)O3)cc1 (stereo unspecified)	i	62.6	8.8	9.9*	-5.7	-1.7	0.5	-21.6	eIF4H FP inh retest=98.1*;PABP polyA inh retest=43.0
COc1ccc(Br)cc1C(=O)Nc1cccc(-c2nnc(-c3ccco3)o2)c1	/	/	/	/	26.1	-11.9	-6.6	-23.9
COc1ccc(NC(=O)c2cc(S(=O)(=O)N3CCCC3)c[nH]2)cc1	i	2.0	-24.6	-7.9	-6.6	3.3	4.3	-14.8
COc1ccc2c(c1)c(C(=O)N/N=C/c1cn(C)c3ccccc13)c(C)n2C	i	-8.7	-5.0	-0.5	-6.9	1.9	-3.2	/
Cc1ccc(Nc2n[nH]c(=S)s2)c(C)c1	/	/	-25.6	/	/	-0.6	0.5	1.5
COc1cc2c(cc1OC)CN(C(=O)c1ccc(OC)c(S(=O)(=O)N3CCOCC3)c1)CC2	i	-14.0	/	-5.3	3.8	-1.4	0.1	2.3
COc1ccc(/C=N/N=C2\SC(CC(=O)O)C(=O)N2c2ccccc2)cc1 (stereo unspecified)	i	2.5	-22.8	-3.3	-10.5	-0.2	1.6	/
COc1ccccc1OCc1ccc(C(=O)NN)o1	i	-10.9	-11.8	-1.7	-8.1	1.1	3.4	-19.4
Cc1ccc2c(c1)CCCN2C(=O)c1ccc2c(c1)OCO2	i	-3.9	/	-12.9	-19.2	0.3	2.6	/
CN(C)CCCN(C(=O)c1ccc(Br)s1)c1nc2cc3c(cc2s1)OCCO3	i	/	-13.5	/	-6.2	4.5	5.9	11.7
CCCN(Cc1nnc(-c2cccs2)o1)C(=O)CN1C(=O)NC2(CCCCC2C)C1=O (stereo unspecified)	/	/	0.1	/	/	1.8	2.7	15.6
Cc1ccc(C(=O)CN(CCCC(N)=O)C(=O)c2ccncc2)cc1	/	/	-101.2	/	-6.3	3.1	4.1	-19.8
Cn1nnnc1SCC(=O)N1CCN(c2cccc(Cl)c2)CC1	i	0.3	/	12.2	8.5	-0.3	-4.9	-7.4
COc1ccc(C2=Nc3ccc(C)cc3C(c3ccccc3)N2CC(=O)NN)cc1 (stereo unspecified)	i	11.5	1.6	2.4	-7.7	-0.1	3.0	/
C=C(C)Cn1c(CCNC(=O)CCC)nc2ccccc21	i	-18.6	-48.8	-15.3	-15.1	4.1	-2.4	0.8
CC(C)C(NS(=O)(=O)c1cccc2nsnc12)C(=O)Nc1nccs1 (stereo unspecified)	i	-3.1	-1.7	-3.8	-11.7	-1.4	1.5	-11.4
COc1ccc(-c2nnc(N)s2)cc1	/	5.0	-14.2	5.7	-1.3	-1.7	0.2	-28.8
C[C@@H]1CN([C@@H](C)CO)C(=O)CCCn2nncc2CO[C@@H]1CN(C)C(=O)c1cc(-c2ccccc2)on1	/	/	-7.7[16.7 µM]	/	/	-0.5	3.0	-7.8&0.9
Cc1nc2nc3c(cn2n1)C(=O)CC(C)(C)C3	i	6.1	-42.6	-1.1	/	/	/	/
COc1cc(CC(=O)N2CCN(S(=O)(=O)c3ccc(C(C)C)cc3)CC2)cc(OC)c1OC	/	/	30.4	/	/	1.6	-0.1	-3.6
NC(=O)c1ccc(N2CCN(c3ccccc3F)CC2)c([N+](=O)[O-])c1	i	-2.8	8.2	6.3	-4.3	-1.4	-9.2	/
O=C(CCC(=O)N1CCN(c2ccccc2F)CC1)N1CCN(c2ccccc2)CC1	i	4.1	18.8	-8.3	-21.5	1.6	-4.0	3.3
COc1ccc(NC(=O)CSc2nncc3ccccc23)cc1	i	0.7	-1.7	2.5	4.2	7.0	3.1	/
Nc1ccc(Nc2ccncc2)cc1	/	/	6.4	/	/	-0.2	3.5	-7.6
CC(C)COc1ccc(C(=O)NC(CC(C)C)C(=O)O)cc1 (stereo unspecified)	i	-5.1	/	3.9	-6.8	4.3	0.6	-5.8
CC(NC(N)=O)C(=O)OCc1ccc(Cl)cc1Cl (stereo unspecified)	i	-14.9	-21.6	-9.7	-11.5	-1.5	3.7	-5.2
O=C(NN=Cc1ccc2c(c1)OCO2)NN=Cc1ccc2c(c1)OCO2	/	/	0.0	/	/	3.9	0.5	-9.9
COC(=O)c1cccc2c1NC(=O)C2=O	i	1.5	3.0	-6.9	17.1	0.1	12.8	-14.4
CC(C)(O)C#Cc1ccc(C(=O)N2CCCC(CNS(=O)(=O)c3cccs3)C2)o1 (stereo unspecified)	i	/	3.9	/	6.4	-2.2	1.3	3.9
O=C1CCCc2c1cnc1ncnn21	i	3.8	8.3	2.0	-10.0	0.5	7.6	/
COc1ccc(S(=O)(=O)N2CCC(C(=O)NCc3ccc(C)cc3)CC2)cc1	i	-2.8	-1.6	-1.3	-16.6	4.4	1.2	-2.1
Cc1cccc(NC(=O)COc2cccc3c2CCNC3=O)c1	/	/	-11.1	/	/	6.3	2.3	-9.3
COc1ccc(CN2CCN(C(=O)CN3C(=O)C4C5C=CC(C5)C4C3=O)CC2)c(OC)c1OC (stereo unspecified)	i	1.0	34.4	-0.5	-9.7	1.6	-6.9	-6.6
O=C(Nc1ccc(F)cc1F)c1ccccc1NC(=O)C1CC=CCC1C(=O)O (stereo unspecified)	i	0.1	-4.5	7.7	5.0	-2.1	2.3	-13.5
COc1ccc(C)cc1NC(=S)N1CCN(S(C)(=O)=O)CC1	i	-8.1	-1.3	-7.1	-9.3	-3.6	-0.2	-24.4
CCCOc1ccc(-c2c(C(=O)N/N=C(\C)c3cccnc3)nnn2-c2nonc2N)cc1	i	15.2	-3.8	6.0	3.4	-0.4	1.0	-22.0
O=C(CSc1nncs1)N1CCN(C(=O)c2ccco2)CC1	i	/	4.8	/	-4.2	-0.8	3.3	-10.9
O=c1c(N2CCCCC2)coc2ccccc12	i	3.5	-123.2	-14.3	-2.7	-0.1	2.5	-18.8
Cc1cc(SCC(=O)NC2CCCCC2)nc2ccccc12	i	5.2	1.5	6.9	-5.0	-9.0	1.6	-2.7
Additional compounds follow:
SMILES	Rce1 inh	PABP polyA inh	HIV Env fusion	eIF4H FP inh	CSC inhib	MT1-MMP act inh	MT1-MMP act inh RFP	UUG fidelity	others
O=C(NCC1CCCO1)c1ccc(CS(=O)(=O)c2ccc(Cl)cc2)o1 (stereo unspecified)	i	5.6	-32.3	-6.2	-5.4	-8.6	-2.5	/
CCCn1c(=O)c2c(nc3n2CCCN3CCc2ccccc2)n(C)c1=O	i	-4.9	24.7	5.9	12.7	/	/	9.9
CCOc1ccccc1C1CC(=O)Nc2cc3c(cc21)OCCO3 (stereo unspecified)	/	3.5	-31.7	-11.4	56.3	10.5	-9.1	-10.4
CCCCCCOc1ccc(/C=c2\s/c(=C(/C#N)C(=O)NCc3ccco3)n(-c3ccccc3)c2=O)cc1	i	-7.6	-17.5	-0.6	-1.8	-4.6	1.0	/
Fc1ccc(Cn2nnnc2C(c2cccs2)N2CCN(C3CCCCC3)CC2)cc1 (stereo unspecified)	i	-12.1	-6.9	6.4	4.9	3.5	1.5	-5.0
CCNC(=O)n1cc(-n2cncn2)c(-c2ccc(Cl)cc2)n1	i	-5.3	10.0	-4.0	8.8	2.3	-1.4	/
CN1OC[C@@H]2CN[C@H](c3cccc(Oc4ccccc4)c3)C[C@@H]21	/	/	-6.7	/	/	3.1	1.9	-3.8
O=C(Nc1c2c(nn1-c1ccccc1)CS(=O)C2)c1ccc(S(=O)(=O)N2CCOCC2)cc1 (stereo unspecified)	i	-1.2	-13.1	-2.5	13.4	-0.6	0.7	/
Cc1nc2ccccc2n1CCc1nc2c3ccccc3nc(=S)n2[nH]1	i	-2.6	-118.2	-1.5	-2.3	3.9	5.3	-8.7

Source: PubChem BioAssay

Random draw from the library (roughly 2.9% active in at least one column).
